Screening data as filed in PubChem.
KCNQ2 enhance – potentiators of rat KCNQ2 potassium channel | CHO-K1 KCNQ2, FluxOR thallium flux fluorescence; active compounds read high | O88943 | AID 2239 | B-score at 10 µM | 0.54% of 310,000 active;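 active means fluorescence ratio B-score at least 3 SD of library B-scores, with initial fluorescence B-score within 3 SD, cut at about 5.3 in these data; same plate scores as AID 2156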;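 further: B-score of peak minus minimum over baseline fluorescence ratio after K+ and Tl+ stimulus; positive B-score means potentiation of KCNQ2 with more thallium influx and brighter signal; only the inactives scoring about 0 or higher are listed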
Target sequence (O88943 whole entry, looked up): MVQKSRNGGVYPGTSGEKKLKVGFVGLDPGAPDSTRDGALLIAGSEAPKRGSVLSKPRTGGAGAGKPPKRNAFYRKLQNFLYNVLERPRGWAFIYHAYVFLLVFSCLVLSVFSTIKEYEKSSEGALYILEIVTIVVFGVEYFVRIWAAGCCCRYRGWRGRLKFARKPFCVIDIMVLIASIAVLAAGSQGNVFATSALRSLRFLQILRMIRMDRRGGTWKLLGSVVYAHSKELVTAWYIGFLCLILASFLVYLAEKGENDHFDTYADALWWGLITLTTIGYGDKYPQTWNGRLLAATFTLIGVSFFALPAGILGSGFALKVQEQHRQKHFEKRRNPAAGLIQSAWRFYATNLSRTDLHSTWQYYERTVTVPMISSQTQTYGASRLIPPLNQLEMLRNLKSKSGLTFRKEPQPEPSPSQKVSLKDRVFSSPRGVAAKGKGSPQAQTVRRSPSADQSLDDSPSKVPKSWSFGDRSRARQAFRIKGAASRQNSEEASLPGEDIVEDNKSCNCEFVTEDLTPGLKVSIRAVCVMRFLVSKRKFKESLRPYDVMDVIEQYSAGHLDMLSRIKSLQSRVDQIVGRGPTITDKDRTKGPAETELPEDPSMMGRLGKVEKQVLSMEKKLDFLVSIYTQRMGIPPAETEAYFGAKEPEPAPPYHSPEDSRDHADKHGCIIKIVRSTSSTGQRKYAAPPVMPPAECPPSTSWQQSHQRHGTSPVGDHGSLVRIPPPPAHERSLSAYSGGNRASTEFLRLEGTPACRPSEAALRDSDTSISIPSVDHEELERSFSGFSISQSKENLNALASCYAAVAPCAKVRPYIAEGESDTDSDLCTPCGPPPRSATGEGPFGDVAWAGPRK
KCNQ2 enhance baseline – also measured in KCNQ2 enhance; calls as there; B-score; compound at 10 µM; measured here: initial fluorescence intensity artifact check;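 brightness before thallium and not channel activity; 0 = typical well and far values either way flag optical interference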
* marks the source's active call; other numbers are inactive results. These rows are one share of the data; rates above refer to the full screens.

no.	SMILES	KCNQ2 enhance	KCNQ2 enhance baseline
1	O=C1C(=O)N(CCO)C(c2ccccc2[N+](=O)[O-])/C1=C(\O)c1ccccc1 (stereo not given)	1.13	-0.67
2	NS(=O)(=O)c1ccc(NC(=O)COC(=O)CCNC(=O)NC23CC4CC(CC(C4)C2)C3)cc1	1.09	-0.28
3	CC1=C(C(=O)OCc2ccccc2)C(c2cccc(F)c2)NC(=O)N1 (stereo not given)	0.13	-3.57
4	N#Cc1ccc(C23CC4(C2)[C@H](CN(Cc2ccc(C(F)(F)F)cc2)[C@@H]4c2ccccc2)C3c2ccc(C(F)(F)F)cc2)cc1 (stereo not given in full)	0.14	-1.66
5	COc1cc(C)c(C(=O)Oc2cc(C)c(C(=O)O)c(O)c2C)c(O)c1C(=O)O	0.61	0.42
6	CCOC(=O)Cc1csc(N/N=C/c2cccc([N+](=O)[O-])c2)n1	0.76	-0.02
7	Cc1nc2ccccc2n1Cc1ccc(Cl)cc1	0.92	0.95
8	COCCCn1c(SCC(=O)Nc2oc(C)c3c(C)n[nH]c(=O)c23)nc2sc3c(c2c1=O)CCC3	0.7	-0.14
9	O=C(O)Cn1nc(-c2ccccc2)ccc1=O	0.03	0.69
10	CCOC(=O)c1[nH]c2cc3c(cc2c1NC(=O)CN1CCc2ccccc2C1)OCO3	2.02	-0.01
11	Cc1ccc(OCC(=O)N2CCN(S(=O)(=O)c3ccccc3)CC2)c([N+](=O)[O-])n1	1.12	-0.16
12	Cc1cccc(C(=O)Oc2ccc(/C=N/NC(=O)c3ccncc3)cc2)c1	0.3	0.01
13	CCCCOC(=O)NCN1C(=O)C2C3C=CC(C3)C2C1=O (stereo not given)	0.06	-0.99
14	Cc1ccn2c(C(=O)CSc3ccc(Cl)cc3Cl)c(C)nc2c1	0.21	-0.02
15	CC(C)(C)c1ccc(OCC(=O)N2CCN(c3ncccn3)CC2)cc1	0.1	-0.58
16	CC(=O)Nc1ccc(S(=O)(=O)N2CCN(C(=O)c3ncoc3-c3ccc(C)cc3)CC2)cc1	1.04	0
17	CC(C)CSC1=NSC2=NC(=O)/C(=C\c3ccccc3)C(=N)N12	3.27	1.58
18	CS(=O)(=O)N(CC(=O)N1CCc2ccccc2C1)c1ccccc1F	0.38	0.19
19	CN(C)CCCN(C(=O)c1nc2ccccc2s1)c1nc2ccc(F)cc2s1	0.05	0.64
20	C/C(=C\C1CCCCC1)C(NC(=O)c1ccc(C(F)(F)F)cc1)c1ccc(-c2ccccc2)cc1 (stereo not given)	0.5	1.01
21	Cn1cc(Cl)c(C(=O)Nc2nccs2)n1	0.85	-0.04
22	CCc1c(O)nc(SCC(=O)Nc2ccc3c(c2)CCC3)[nH]c1=O	2.63	-0.02
23	Cc1c(OCC(=O)N2C[C@H]3C[C@@H](C2)c2cccc(=O)n2C3)ccc2c3c(c(=O)oc12)CCC3	0.71	0.49
24	O=C(c1cccnc1)N1CCCc2ccccc21	0.55	-0.56
25	CCn1nc(C(=O)Nc2cc(Cl)ccc2-n2cncn2)c2ccccc2c1=O	0.7	-1.2

7 neighbouring entries out of the list so far:
no.	SMILES	KCNQ2 enhance	KCNQ2 enhance baseline
19	CN(C)CCCN(C(=O)c1nc2ccccc2s1)c1nc2ccc(F)cc2s1	0.05	0.64
20	C/C(=C\C1CCCCC1)C(NC(=O)c1ccc(C(F)(F)F)cc1)c1ccc(-c2ccccc2)cc1 (stereo not given)	0.5	1.01
21	Cn1cc(Cl)c(C(=O)Nc2nccs2)n1	0.85	-0.04
22	CCc1c(O)nc(SCC(=O)Nc2ccc3c(c2)CCC3)[nH]c1=O	2.63	-0.02
23	Cc1c(OCC(=O)N2C[C@H]3C[C@@H](C2)c2cccc(=O)n2C3)ccc2c3c(c(=O)oc12)CCC3	0.71	0.49
24	O=C(c1cccnc1)N1CCCc2ccccc21	0.55	-0.56
25	CCn1nc(C(=O)Nc2cc(Cl)ccc2-n2cncn2)c2ccccc2c1=O	0.7	-1.2

Additional entries follow.
no.	SMILES	KCNQ2 enhance	KCNQ2 enhance baseline
26	COCCNC(=O)CN(c1ccc(C)cc1)S(=O)(=O)c1ccccc1	0.01	-1.42
27	COC(=O)c1ccccc1NC(=O)NCc1cccnc1	1.02	0.39
28	Cc1cccc(C)c1NC(=O)c1cccc(C(=O)Nc2c(C)cccc2C)n1	0.59	0.95
29	COc1ccc(NC2=CC(c3ccccc3)N(c3ccc(OC)cc3)C2=O)cc1 (stereo not given)	0.7	-1.24
30	COc1cnn(-c2cccc(C(F)(F)F)c2)c(=O)c1Cl	0.02	-0.4
31	O=C(Nc1nnc(C2CCCC2)s1)C1CCC1	0.01	0.1
32	CCC(=O)Nc1ccc(C(=O)COC(=O)CCN2C(=O)C3CC=CCC3C2=O)cc1 (stereo not given)	0.09	0
33	c1ccc(Oc2cccc(CN3CCOCC3)c2)cc1	1.17	-0.15
34	C#Cc1ccc([C@H]2C=C(C(=O)O)O[C@@H](OCCCCO)C2)cc1	0.06	1.46
35	Nc1nonc1C(=O)NCCN=Cc1cc(Cc2ccccc2)cc(Br)c1O	4.51	-0.76
36	CC1CCCN(CCCNS(=O)(=O)c2ccc3c(c2)CCN3C(=O)C2CC2)C1 (stereo not given)	0.3	0.76
37	CNC(=O)CCSc1ccc(C)cc1	0.19	0.69
38	CC12CN(C(=O)c3ccc([N+](=O)[O-])cc3)CC(C)(CN(C(=O)c3ccc([N+](=O)[O-])cc3)C1)C2=O	0.15	2.34
39	O=c1c2[nH]c3ccccc3c2ncn1Cc1ccncc1	1.27	0
40	Cc1ccc(NC(=O)CSc2nnc(NC(=O)C3CC3)s2)cc1C	0.55	1.54
41	CCc1ccc(CN(C)CCc2ccccn2)cc1	0.26	0.58
42	C/C(CCc1ccc2c(c1)OCO2)=N\N=C(/N)SC1CC(=O)N(c2ccc(Cl)cc2)C1=O (stereo not given)	0.09	-0.9
43	COc1ccc(C(=O)NCCc2cn3ccccc3n2)cc1	0.45	-0.01
44	O=C(CNC(=O)c1ccc(Br)cc1)N/N=C/c1ccc[nH]1	0.09	-1.76
45	Brc1ccc2[nH]ncc2c1	0.22	0.47
46	NC(=O)CSc1nc2ccccc2n1Cc1ccccc1	0.05	1.37
47	O=Cc1cn(CCOc2ccccc2F)c2ccccc12	1.46	-1.81
48	N#Cc1cccc(-n2nnnc2-c2ccc3c(c2)OCO3)c1	1.27	-1.31
49	c1ccc(-c2noc(CN3CCN(c4cnccn4)CC3)n2)cc1	0.91	0.09
50	CN(C)C(CNC(=O)c1cc(Br)ccc1Cl)c1ccco1 (stereo not given)	0.52	2.1
51	COc1ccc2c(CC(=O)NCc3cccs3)coc2c1	0.41	-0.84
52	CC(=O)Oc1ccc(CC(C(=O)O)N2C(=O)c3ccccc3C2=O)cc1 (stereo not given)	0.01	1.98
53	Cc1sc(NC(=O)c2cccc(N3C(=O)CCC3=O)c2)nc1-c1ccccc1	0.65	1.03
54	COc1cc(/C=N/NC(=S)N/N=C/c2cc(OC)c(OC)c(OC)c2)cc(OC)c1OC	0.03	0.05
55	O=C(CN1CCN(Cc2ccccc2)C1=O)NCc1cccs1	0.43	-0.45
56	CCC(=O)NCCc1nc2ccccc2n1CC	0.19	1.28
57	CCCC(=O)Nc1cccc(NC(=S)NC(=O)C(C)Oc2ccc(Cl)cc2Cl)c1 (stereo not given)	0.6	0.16
58	NS(=O)(=O)c1ccc(NC(=O)COc2ncnc3sccc23)cc1	0.18	-1.2
59	CC(C(=O)Nc1ccccc1-c1ccccc1)N1CCOCC1 (stereo not given)	2.4	0.16
60	COc1ccc2c(c1)O[C@H](c1ccc3c(c1)OCO3)[C@@H](OC(=O)Nc1cc(OC)c(OC)c(OC)c1)C2=O	1.58	-0.1
61	O=C(/C=C/c1cccc(Br)c1)NCc1ccncc1	0.41	-0.1
62	Cc1cnc(C)c(N(C)NC(=S)Nc2ccccc2)n1	0.32	-0.36
63	C=CCN(c1ccccc1)S(=O)(=O)c1ccc(Cl)c(C(=O)OCC(=O)NCCCN2CCCC2=O)c1	1.45	-0.01
64	CCOC(=O)N1CCN(C(=O)CCc2ccc(S(=O)(=O)NCCc3ccccc3)cc2)CC1	1.31	-1.22
65	OCCCNc1nc(-c2ccccc2)c2cc(Cl)ccc2n1	0.64	1.53
66	O=c1cc(CN2CCOCC2)c2cc(Cl)c(O)cc2o1	0.05	0.79
67	COc1cc(CNc2ccccc2)c([N+](=O)[O-])cc1OC	0.88	-0.94
68	COc1ccc(/C=C(\C#N)c2cc(OC)c(OC)cc2[N+](=O)[O-])cc1	0.18	0.26
69	CC(C)NC(=O)c1ccc2c(c1)nnn2C	0.3	0.36
70	CCOc1ccccc1Nc1ccc2nonc2c1[N+](=O)[O-]	0.93	2.18
71	COc1ccccc1C(=O)NCC(=O)Nc1cccnc1	1.87	-0.6
72	CCOc1ccc2nc(N3CCC(C(=O)N4CCN(c5ncccn5)CC4)CC3)sc2c1	0.42	-2.07
73	CCC(C)(C(=O)NC1CCCC1)N(C(=O)Cc1cccs1)c1c(C)n(C)n(-c2ccccc2)c1=O (stereo not given)	0.89	0.33
74	O=C(O)c1cn2c3c(ccc(Cl)c3c1=O)OCC2	0.04	1.56
75	CC(C)CCNC1=NCCCCC1	2.34	-1.16

New compounds follow.
no.	SMILES	KCNQ2 enhance	KCNQ2 enhance baseline
76	CCCCCCCCCC(=O)NNC(=O)c1c(O)c2ccccc2n(CCC)c1=O	0.06	-0.01
77	CC1CCN(S(=O)(=O)c2ccc3ncn(CC(=O)N(C)C4CCCCC4)c(=O)c3c2)CC1	1.67	0.31
78	Cc1onc(-c2ccccc2)c1-c1n[nH]c(=S)n1-c1ccc(C(=O)O)cc1	0.11	2.93
79	COc1ccc(CCC(=O)NCCS(=O)(=O)N2CCN(c3ccccc3F)CC2)cc1	0.35	0.57
80	Cc1ccc(S(=O)(=O)N(C)C)cc1NC(=S)Nc1ccc2[nH]c(=O)[nH]c2c1	0.08	0.28
81	O=C(Cc1cccs1)NCCS(=O)(=O)N1CCN(c2ccccc2F)CC1	0.15	0.59
82	CCC(NC(=O)C1CCCO1)c1ccccc1 (stereo not given)	1.12	0.08
83	COc1ccc(-n2c(O)c(C=NCc3ccccn3)c3ccccc3c2=O)c(OC)c1	0.24	-0.53
84	Cc1ccsc1/C=N/n1c(-c2ccncc2)n[nH]c1=S	0.23	0.43
85	CN1[C@@H]2CC[C@H]1CC(OC(=O)C(CO)c1ccccc1)C2 (stereo not given in full)	0.18	-0.01
86	C=CCn1c(SCc2ccccc2)nc2scc(-c3ccc(C)o3)c2c1=O	0.16	-0.05
87	CCOC(=O)CCSCC(=O)Nc1nnc(C)s1	0.05	-0.8
88	CCOc1ccc(NC(=O)CSc2n[nH]c(N)n2)c([N+](=O)[O-])c1	2.45	-0.33
89	COc1cc(C=O)ccc1OCC(=O)N1CCCC1	1.52	-3.25
90	CCOC(=O)C1CCCN(C(=O)Nc2ccccc2)C1 (stereo not given)	1.36	-0.53
91	O=C(CSc1nnnn1-c1ccccc1)c1ccc(O)cc1O	3.3	0.25
92	Cc1ccc(S(=O)(=O)N2CCN(C(=O)CSC3CCCC3)CC2)c(C)c1	0.18	-0.13
93	COc1ccccc1NC(=O)Nc1nc2ccc(S(N)(=O)=O)cc2s1	1.36	0.48
94	CC1CCN(S(=O)(=O)c2ccc(NC(=O)CCN3C(=O)c4ccccc4C3=O)cc2)CC1	0.72	-0.74
95	C#CCOCCOCCOCCNc1nc(N2CCN(C(=O)[C@H](CCCCN)n3cc([C@@H](N)CC(C)C)nn3)CC2)nc(N2CCN(C(=O)[C@H](Cc3cc4ccccc4[nH]3)n3cc([C@@H](N)Cc4ccc(O)cc4)nn3)CC2)n1	0.18	0.59
96	CN(c1ccccc1)S(=O)(=O)c1cccc(NC(=O)CSc2nncs2)c1	0.02	0.56
97	CC(C)CN(CC(C)C)S(=O)(=O)N1CCC(C(=O)NCc2cccnc2)CC1	0.85	1.57
98	CN(CCc1ccccn1)C(=O)CCC1CCCN(C(=O)CCOc2ccccc2)C1 (stereo not given)	0.29	-0.15
99	COc1ccc(OC)c(-c2nc3ccccc3nc2-c2ccccc2)c1	1.34	0.91
100	COc1ccc(C(=O)NCCc2nnc3ccc(SCC(=O)NCCc4ccc(OC)c(OC)c4)nn23)cc1	1.88	-0.54
101	Cc1ccccc1CS(=O)(=O)CC1(O)CCN(C(=O)c2cccc(C(F)(F)F)c2)CC1	0.96	0.04
102	CCOc1cccc(/C=N/NC(=O)c2cc(-c3cccn3C)n[nH]2)c1O	0.34	-1.05
103	Cn1c(CNC(=O)c2ccccc2)nnc1SCC(=O)Nc1nccs1	2.46	-0.43
104	Brc1ccc(-c2csc3[n+]2CCCCC3)cc1	0.43	0.87
105	CC1(C(=O)O)CCC(C(=O)Nc2ccc(F)cc2)C1(C)C (stereo not given)	0.49	0.17
106	O=C(O)COc1ccccc1/C=N/NC(=O)CSc1nc2ccccc2s1	0.09	-0.78
107	Nc1ccc(S(=O)(=O)NC2(C(F)(F)F)NC(=O)N(Cc3ccccc3)C2=O)cc1 (stereo not given)	0.94	0.03
108	Cc1c(N(C(=O)c2cnccn2)C2(C(=O)NC3CCCC3)CCCCC2)c(=O)n(-c2ccccc2)n1C	0.42	-1.05
109	COc1ccc(NC(=O)C2CCCN(S(=O)(=O)c3ccc4c(c3)CCCN4C(C)=O)C2)cc1Cl (stereo not given)	0.29	1.59
110	COc1ccc(CN(C)C(=O)c2ccc(NS(=O)(=O)c3ccccc3)cc2)c(OC)c1	0.08	1.02
111	CCOC(=O)N/N=C(C)/C=C/c1ccco1	0.28	0.29
112	COC(=O)c1cn(C(=O)c2cc(Cl)ccc2Cl)c2ccccc12	0.11	0.46
113	O=C1NCCC/C1=N\Nc1ccc(Br)cc1	1.1	-0.82
114	Cc1ccc(S(=O)(=O)CCN2C=CC(C(F)(F)F)=NCC2)cc1	0.06	-1.47
